# gsp ag = agonists of gsp mutant (McCune-Albright syndrome) | gsp mutant cells, cAMP HTRF, 30 min; control for the full effect not named in the record | Potency, µM (doses to about 76.9 µM), without a hit: at the highest dose activation (cAMP increase), actives largely listed as activators | 340,000 tested, 0.13% active | AID 624287; active = well fitted activation curve with a large enough effect; inconclusive = small, poorly fitted or top-dose-only effect, or another doubt; inactive = no such curve, though single readings can be large or run the other way; cell line not stated here;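 further: phosphodiesterase inhibitor Ro 20-1724 added with compounds to block cAMP breakdown; potency means the concentration at half of the fitted maximal effect; nearly all actives have a fitted effect of over 60% in size; about a fifth of the inactives were tested at one dose only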
#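 Cells in DMEM/10% FBS with G418 were pretreated with compounds in DMSO plus […] (300 uM stock) for 30 min at 37C. cAMP was measured by HTRF (cAMP-d2 plus anti-cAMP antibody-K) after 30 min at room temperature.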
# Sfp inh = inhibitors of Bacillus subtilis Sfp phosphopantetheinyl transferase. 310,000 tested, 3.5% active. Biochemical Sfp PPTase activity, qHTS. AID 1490. Q9F4F7. Potency, µM, inactives show max response, negative = inhibition, usual class: inhibitors; active means well fitted inhibition curve with a large enough effect; inconclusive means small, poorly fitted or top-dose-only effect, or another doubt; inactive means no such curve, though single readings can be large or run the other way;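 further: the enzyme is Sfp with the accession as filed and its product quenches rhodamine fluorescence; potency means the concentration at half of the fitted maximal effect; 0% = enzyme reaction without inhibitor and -100% = no enzyme wells; top concentration of the series not given in the record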
#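 Sfp 15 nM + cpd, 15 min RT; start w/ rhodamine-CoA 5 uM, BHQ-2-YbbR 12.5 uM (final); 50 mM Hepes pH 7.6, 10 mM MgCl2, 0.01% NP-40, 0.01% BSA; read 525/598 nm at 0 and 30 min.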
# Menin-MLL FL inh = displaces fluorescein MLL peptide from human menin; AID 1766; Fluorescence polarization, fluorescein-MLL peptide displacement from menin; FP activity change, % at 61.4 µM; 290,000 tested, under 10 active; inconclusive = falling polarisation curve, or a change in total fluorescence; inactive = total fluorescence flat and polarisation flat or rising; no compound was filed as active; the % refers to the polarisation; negative = inhibition;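 further: % of control where 0% means no effect; inhibitors lower the polarisation; unlabelled MLL peptide was the positive control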
# CtBP-E1A blk = blocks the CtBP interaction with E1A. AID 651724. activity change, % (test concentration not listed). 340,000 tested, 0.49% active. AlphaScreen GST-E1A/His-CtBP binding, 1536-well; hits give low values; control for the full effect not named in the record; in the data active means activity change below about -65%; inconclusive means about -30% to -65%; inactive means above about -30%; further: on the % scale 0 is the no-effect control and ±100 the full control effect; compound concentration not given in the record
#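 GST-E1A and His-tagged CtBP (125 nM each as 5X stock) were preincubated with pin-transferred compound for 2 h at 37 °C in the dark, then glutathione donor and nickel acceptor beads were added for 1 h before AlphaScreen reading.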
# TRPV1 PAM = enhances activation of the human vanilloid receptor TRPV1; Q8NER1; TRPV1-expressing cells, Fluo-8 calcium influx, capsaicin EC20 potentiation; host cell line not named in the record; control for the full effect not named in the record; potentiation, % at 8.33 µM; 320,000 tested, 0.02% active; AID 540277; active means potentiation above 80%; inconclusive means 30% to 80%; inactive means below 30%; further: 0% is about no effect
# Target sequence (Q8NER1 whole entry, looked up): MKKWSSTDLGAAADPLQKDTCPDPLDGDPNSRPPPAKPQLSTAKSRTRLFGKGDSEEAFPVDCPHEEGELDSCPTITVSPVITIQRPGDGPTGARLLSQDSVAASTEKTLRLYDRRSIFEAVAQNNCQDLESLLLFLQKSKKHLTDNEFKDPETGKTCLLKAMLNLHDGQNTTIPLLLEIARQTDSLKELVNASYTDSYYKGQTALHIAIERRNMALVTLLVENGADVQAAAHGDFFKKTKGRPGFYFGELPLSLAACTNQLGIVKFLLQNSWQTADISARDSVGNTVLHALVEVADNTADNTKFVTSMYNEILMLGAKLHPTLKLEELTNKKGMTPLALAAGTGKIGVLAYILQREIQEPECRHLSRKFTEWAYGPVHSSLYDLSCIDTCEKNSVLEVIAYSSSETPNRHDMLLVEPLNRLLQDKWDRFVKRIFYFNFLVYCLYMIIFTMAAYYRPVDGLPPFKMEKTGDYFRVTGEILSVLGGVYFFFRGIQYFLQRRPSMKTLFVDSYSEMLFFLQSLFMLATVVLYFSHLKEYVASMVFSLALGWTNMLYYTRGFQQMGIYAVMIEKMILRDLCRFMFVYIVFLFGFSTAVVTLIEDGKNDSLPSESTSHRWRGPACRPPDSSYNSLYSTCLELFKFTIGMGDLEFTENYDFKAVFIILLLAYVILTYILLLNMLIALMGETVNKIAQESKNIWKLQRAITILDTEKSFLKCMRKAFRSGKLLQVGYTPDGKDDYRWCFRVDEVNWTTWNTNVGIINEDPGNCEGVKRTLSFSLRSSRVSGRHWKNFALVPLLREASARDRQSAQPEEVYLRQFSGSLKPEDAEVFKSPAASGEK
#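 Fluo-8 calcium influx in TRPV1-expressing cells, kinetic read (ex 480/em 520 nm). Compound added and read 3 min for agonist activity, followed by capsaicin at EC20 final and 2 min further read for enhancement.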
# gsp antag = antagonists of gsp mutant (McCune-Albright syndrome); gsp-mutant cells, cAMP HTRF, 30 min; control for the full effect not named in the record; Potency, µM (top dose mostly 76.9 µM), without a hit: top-dose activity change, negative = inhibition, usual class: inhibitors; 340,000 tested, 0.4% active; active = falling curve of any shape with a large fitted effect; inconclusive = falling curve, mostly with a smaller effect; inactive = flat or rising curve; cell line not stated here;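 further: intracellular cAMP measured with PDE inhibitor Ro 20-1724 present during compound exposure; potency means the concentration at half of the fitted maximal effect; on the % scale 0 is the no-effect control and ±100 the full control effect; nearly all actives have a fitted effect of over 65% in size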
#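 G418-selected cells were plated in DMEM/10% FBS for 16-24 h at 37C, then treated with compounds plus the PDE inhibitor […] (300 uM solution added) for 30 min at 37C. Intracellular cAMP was measured by HTRF after 30 min lysis at room temperature.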
# ClpP mod = qHTS Assay for Activators of ClpP | ATP-dependent Clp protease proteolytic subunit (Bacillus subtilis (strain 168)), P80244 | Potency, µM (highest dose often 57.5 µM), inactives show at the highest dose activity change, negative = active | purified B. subtilis ClpP, FRET peptide cleavage, 20 min | 340,000 tested, 1.9% active | AID 651965, 2013; active = well fitted falling curve with a large enough effect; inconclusive = small, poorly fitted or top-dose-only effect; inactive = no such curve, though single readings can be large or run the other way; further: potency means the concentration at half of the fitted maximal effect; the source files actives as falling curves though it sought activators and does not explain the sign; nearly all actives have a fitted effect of over 65% in size; many hits overshoot -100%
# Target sequence (P80244 whole entry, looked up): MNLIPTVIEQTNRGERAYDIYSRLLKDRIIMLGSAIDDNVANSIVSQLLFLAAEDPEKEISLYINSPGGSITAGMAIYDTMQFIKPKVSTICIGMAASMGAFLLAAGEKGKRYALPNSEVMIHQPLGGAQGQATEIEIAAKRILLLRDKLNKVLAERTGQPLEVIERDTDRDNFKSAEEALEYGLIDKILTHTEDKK
#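 Buffer: 100 mM Tris/HCl pH8, 100 mM KCl, 0.05% low protease BSA, 2.5% glycerol, 0.01% Tween-20. ClpP 10 microg/mL final; 20 min RT; delta FRET normalized to ADEP and DMSO controls.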
# The depositor's hits bear a star; ? = inconclusive; · = not tested or not shown; [ ] = another dose, or the depositor's remark.
SMILES	gsp antag	TRPV1 PAM	gsp ag	Sfp inh	ClpP mod	Menin-MLL FL inh	CtBP-E1A blk
COc1ccc(C(=O)NCC(=O)O)cc1	0%	8	-37%	16%	-3.2%	0.0	1
O=C(c1cccc2cccc(O)c12)N1CCCCC1	12%	8	1%	-17%	0.8%	2.0	2
Cc1ccc(S(=O)(=O)Nc2ccc3c(c2)nc(CCN2CCCC2)n3C)cc1	11%	3	-20%	-2%	-11%	7.5	-2
CNc1oc(-c2ccc(Cl)cc2)nc1P(=O)(c1ccccc1)c1ccccc1	-11%	11	-7%	?	28µM*	1.7	-3
COc1ccc(C2N=C(c3ccccc3)C(C)(C)N2O)cc1OC (stereo not given)	4%	27	5%	21%	-8.2%	-1.2	0
CC1(C)CC(=O)C=C(NCCN2CCNCC2)C1	12%	-2	2%	3%	-0.9%	3.1	4
COc1cc(C(=S)N2CCCCC2)ccc1O	-2%	1	-33%[inhibitor]	45µM*	-2.3%	1.4	-1
CC(=O)c1cccc(CN2CCN(Cc3ccccc3)C(CCO)C2)c1 (stereo not given)	8%	8	-21%	11%	2.9%	-3.1	-4
COc1ccccc1/C=C/C(=O)NCC(=O)N/N=C/c1cccnc1	-5%	14	12%	12%	3.6%	1.0	·
COc1ccc(CN2C(=O)c3cccc4cccc2c34)cc1F	1%	5	?	-19%	·	0.5	34
CC(NC(N)=O)C(=O)OCC(=O)c1ccc(-c2ccccc2)cc1 (stereo not given)	6%	?	-30%	-9%	-15%	-0.7	8
CCc1ccc(C2(O)CC(C(F)(F)F)=NN2C(=O)Cc2ccc([N+](=O)[O-])cc2)cc1 (stereo not given)	-12%	-12	10%	?	-0.4%	0.6	1
O=C(O)c1cccc(S(=O)(=O)Nc2ccc(N3CCCCC3)cc2)c1	2%	·	-10%[15.4 µM]	·	0.0%	·	2
Cc1nn(-c2ccccc2)c2c1C(=O)N(c1ccccc1)C(=O)C(C)(C)C2	-2%	14	-2%	5%	-0.7%	0.1	0
CC(C)C(NC(=O)c1ccc(C(C)(C)C)cc1)C(=O)NCCc1ccccn1 (stereo not given)	-3%	19	5%	0%	·	1.6	6
CNC(=O)Nc1nnc(C(C)(C)C)s1	9%	2	-12%	7%	-2.0%	4.1	-4
CC(=O)Nc1ccc(NC(=O)CSc2nnnn2-c2ccc(F)cc2)cc1	-11%	?	-11%[15.4 µM]	1%	1.7%	-4.6	0
CCN(CC)CC(=O)Nc1ccc([N+](=O)[O-])cc1	8%	-5	-16%	-3%	·	4.2	3
CCOC(=O)c1ccc(S(=O)(=O)NCCNCc2ccccc2)cc1	5%	·	-26%	·	·	·	-24
O=C(NCCNC(=O)Oc1cccc2ccccc12)Oc1cccc2ccccc12	-5%	·	18%[15.4 µM]	·	-2.9%	·	1
C=CCCCCCCCCC(=O)Nc1c[nH]c(=O)[nH]c1=O	8%	-2	-44%[inhibitor]	2%	-0.2%	5.1	5
CCCC(C)c1nc(C(N)=O)c2[nH]c(=O)n(-c3ccc(OC)c(OC)c3)c2n1 (stereo not given)	-5%	6	-17%	14%	-2.8%	-1.6	-1
O=c1cc(O)c2sc(Nc3ccc(F)cc3)nc2[nH]1	2%	-5	-69%[inhibitor]	?	-2.8%	25	4
CCN(CC)C(=O)CSc1nc(O)c(Cc2ccc(OC)cc2)c(=O)[nH]1	4%	?	32%	-6%	-2.8%	-1.7	-16
O=C(Cn1nc(Cc2cccnc2)c2ccccc2c1=O)Nc1cccnc1Cl	-1%	8	4%[15.4 µM]	-4%	·	0.1	-5
CCS(=O)(=O)c1nc(S(=O)(=O)c2ccc(Cl)cc2)c(NCc2ccccn2)s1	-16%	-1	42%	-2%	-1.8%	-4.9	5
CCCc1nc(SCC(=O)NCC2CCCO2)c2c(=O)n(C)c(=O)n(C)c2n1 (stereo not given)	13%	16	?	-7%	1.4%	·	10
CCOC(=O)c1ccc(Oc2ccc(C(F)(F)F)cn2)cc1	1%	-12	16%	-1%	1.4%	0.2	·
COc1cccc(NC(=O)N2CCCC2C(=O)NC2CC2)c1 (stereo not given)	12%	3	-11%	1%	1.1%	-1.7	-10
O=C(O)CC/C(=N\NC(=O)c1ccncc1)c1ccccc1	5%	19	-10%[15.4 µM]	3%	0.1%	-2.7	5
S=C(NNC(=S)Nc1ccc(Cl)cc1)NNc1ccccc1	·	·	-5%	·	1.7%	·	0
CCc1cccc(C)c1NC(=O)CSc1nnc(CCCOc2ccc(Cl)cc2Cl)n1C	10µM*	-3	-8%	7%	0.9%	24	0
Cc1ccccc1C(=O)c1cccn1CC(=O)N1CCCCCC1	0%	0	-30%	-15%	1.4%	1.5	3
Cc1cc(NS(=O)(=O)c2ccc(NC(=O)/C=C/c3ccc(C)o3)cc2)nc(C)n1	-10%	6	-1%	3.5µM*	-8.0%	10	·
O=C(NNc1nc2cc3c(cc2s1)OCO3)c1ccc(F)cc1	5%	-4	15%	28µM*	-1.8%	-1.1	-15
Cc1cccc(NC(=O)Cc2noc3ccccc23)c1C	11%	-5	4%	22%	-7.9%	1.6	5
CN1CCN(C(=O)C2=C[C@@H](c3ccc(C(F)(F)F)cc3)C[C@@H](OCCCCO)O2)CC1	-3%	-8	·	1%	-1.0%	-5.1	4
CCN(Cc1ccccc1)S(=O)(=O)c1ccc(C(=O)N(CCCN(C)C)c2nc3ccc(F)cc3s2)cc1	-12%	-9	25%	89µM*	1.7%	·	6
COc1ccc(OC)c(CNC(=O)Cc2c(C(=O)O)[nH]c3ccc(Cl)cc23)c1	12%	5	-21%[15.4 µM]	25%	·	0.3	-18
O=C(NC(=S)Nc1ccc(N2CCOCC2)cc1)c1cccc([N+](=O)[O-])c1	15%	-1	-41%[inhibitor]	-19%	1.1%	4.5	3
O=C(CN1CCN(c2ccc(F)cc2)CC1)Nc1ccccc1C(=O)NCCc1ccccc1	?	3	-2%	·	-0.4%	·	-16
Cc1c(NC(=O)C(C)OC(=O)c2ccc(NC(=O)CC#N)cc2)c(=O)n(-c2ccccc2)n1C (stereo not given)	4%	13	43%[15.4 µM]	·	·	·	3
CCOC(=O)c1cn(-c2ccccc2)nc1-c1ccncc1	-1%	-11	-4%	7%	-5.4%	0.0	-14
CN(CC(=O)Nn1cnnc1)S(=O)(=O)c1ccccc1	10%	4	-7%	7%	-1.5%	0.8	4
O=C(Cn1cccc1C(=O)c1ccccc1)NCCCN1CCOCC1	2%	-2	0%	23%	1.5%	1.3	3
COc1cc(C(=O)OCC(=O)NCc2ccc(F)cc2)cc(NC(=O)c2cccs2)c1OC	-18%	-32	0%	?	-9.1%	11	·
COc1ccc(C(=O)NCc2nnc(SCC(=O)c3ccc(F)cc3)n2C)cc1OC	6%	-1	-4%[15.4 µM]	·	-1.5%	·	0
O=C(COC(=O)/C=C/c1ccc(OC(F)F)cc1)NC1CCCCCC1	-8%	·	?	·	-7.9%	·	1
CN1CCN(c2c(/C=N/O)c3ccccc3n2C)CC1	-11%	-2	0%	3%	·	6.4	-1
COc1ccc(C(=O)Nc2cc(OC)c(NC(=O)Nc3ccccc3)cc2OC)cc1	·	·	-52%[inhibitor]	·	14%	·	-22
COC(=O)NNC(=S)Nc1cc(OC)ccc1OC	-6%	11	-30%[inhibitor]	?	0.3%	-2.2	13
Cc1cc(C(=O)N2CCC(C(=O)O)CC2)c(C)o1	-12%	20	2%[15.4 µM]	15%	0.1%	0.2	6
O=C(O)COc1ccccc1/C=N/NC(=O)c1cc(-c2ccc(F)cc2)nc2ccccc12	-15%	0	4%[15.4 µM]	0%	·	-0.8	?
O=C(Nc1cccc(/C=C/c2ccccn2)c1)c1ccc(-n2cncn2)cc1	-21%	·	-14%	·	·	·	1
Cc1cccc(CN2CCc3c([nH]c4ccccc34)C2CC(C)C)n1 (stereo not given)	-9%	-6	-38%[inhibitor]	4%	·	5.1	-12
Cn1c(=O)n(C)c2cc(/C=C(/C#N)C(=O)NCc3ccco3)ccc21	-3%	2	-3%[15.4 µM]	3%	0.0%	-1.1	1
COCCCNC(=S)N1CCN(C(=O)C(=O)Nc2ccc(C(=O)OC)cc2)CC1	4%	7	12%	19%	-1.4%	6.1	-4
CCOC(=O)N1CCC(Nc2ccc3nnc(-c4ccccc4)n3n2)CC1	-6%	27	?	6%	-12%	-4.8	?
C=C(C)CN1C(=O)c2ccccc2C1=O	5%	-9	-66%[inhibitor]	8%	-1.6%	-0.4	-3
Cc1cc(C)cc(NC(=O)CS(=O)(=O)c2cccc3nsnc23)c1	-6%	-2	-3%[15.4 µM]	2%	·	-0.9	-2

# (continued)
SMILES	gsp antag	TRPV1 PAM	gsp ag	Sfp inh	ClpP mod	Menin-MLL FL inh	CtBP-E1A blk
O=C(CSc1nnc(-c2ccco2)n1CC1CCCO1)c1ccc(F)cc1 (stereo not given)	-6%	29	6%	50µM*	-1.7%	7.5	-2
COc1ccc(C(C(=O)NC2CCCC2)N(C(=O)c2ccco2)c2ccc3c(c2)OCO3)cc1OC (stereo not given)	-1%	6	6%	0%	-2.6%	0.2	3
O=C(/C=C/c1cc2c(cc1Br)OCO2)NCc1ccc(Cl)cc1	10%	20	-11%	6%	?	0.0	5
CN(Cc1ccccc1F)c1ccc(S(=O)(=O)N2CCCC2)cn1	·	-11	9%[15.4 µM]	4%	·	1.9	4
Cc1ccc(SCC(=O)OCC(=O)NCCCc2ccccc2)cc1	-1%	-22	2%[15.4 µM]	·	1.7%	·	19
COc1ccc(NC(=O)CSc2nnc(-c3cccnc3)n2Cc2ccco2)c(OC)c1	-1%	1	?	5%	-3.5%	-1.8	-2
COC1=CC(=O)OC12CCCCC2	6%	4	?	17%	-0.4%	-0.5	6
